Source: PubChem (Broad Institute)
Tg IFNy HTS – inhibitors of Toxoplasma gondii growth with IFN-gamma; AID 1259416; 3.8% of 69,000 active; activity change, negative = inhibition, %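 (about 20 µM by stock and volumes)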; Toxoplasma gondii growth in IFN-gamma-treated host cells; active compounds read low; reference of the scale not given here;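 active means below -70%; inconclusive means fit judged invalid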;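 further: host cells are HeLa cells infected with Toxoplasma gondii; parasite growth read as luciferase light; one replicate is shown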
An asterisk follows results filed as active; i = inactive; ? = inconclusive.

mol,Tg IFNy HTS
Cc1cc(C)c(NC(=O)CN2C(=O)CCc3cc(S(=O)(=O)N4CCCCC4C)ccc32)c(C)c1 (stereo not given),-42.6
O=C(Cn1ccnc1-c1ccccc1)N1CCCC2(CCNCC2)CC1,7.7
CN1C(=O)C(c2ccccc2)CC12CCN(Cc1cnn(C)c1)CC2 (stereo not given),7.8
CCN1c2ccc(C)cc2C(=O)NC12CCN(C(=O)c1ccc(F)c(F)c1)CC2,60.8
CCOC(=O)c1nc(Nc2cc(Cl)ccc2C)c2ccccc2n1,11.8
Cc1ccc2[nH]c(=O)c(-c3nc(-c4ccc(F)c(F)c4)no3)c(O)c2c1,26.3
Cc1ccc(C)c(NC(=O)COc2nc(C)nc3ccccc23)c1,-12.1
CC(C)C[C@H]1COCc2cn(nn2)CC[C@@H](Cc2ccc(Cl)cc2)C(=O)N1,-34.8
COCC(=O)N1C[C@H](C)[C@H](OC)CN(C)C(=O)c2ccc(NC(=O)Nc3cccc(F)c3)cc2OC[C@@H]1C,89.6
Cc1cc(C(F)(F)F)n2nc(C3CCCN(C(=O)c4c(C)oc5c4CCCC5)C3)cc2n1 (stereo not given),54.3
Cc1oc(C2CCN(C(=O)Nc3cccc(Cl)c3C)CC2)nc1C(=O)N(C)C,14.6
CCC(=O)N1CC2(C1)[C@H](c1ccccc1)[C@H](CO)N2CC1CC1,53.6
CCOc1ccc(NC(=O)CC2C(=O)N(CC)C(=S)N2Cc2ccc(OC)cc2)cc1 (stereo not given),20.4
O=C1CCc2cc(C(=O)CSc3ccc(Cl)cc3Cl)ccc2N1,0.2
CCn1c(CNC(=O)C2CCC2)nc2c1CN(S(=O)(=O)c1ccc(Cl)cc1)CC2,-63.0
Cc1nc2ncc(C(=O)NCCCc3ccccc3Cl)c(=O)n2[nH]1,8.1
CCCN1CCC(Cc2noc([C@@H]3CCCCN3)n2)CC1,-8.7
COCCN1C(=O)C(c2ccccc2)CC12CCN(Cc1cnn(C)c1)CC2 (stereo not given),0.4
Cc1nc(C(=O)Nc2cccc(CCc3ccncc3)c2)cc(=O)[nH]1,-21.7
COCCN(C)C(=O)c1ccc2onc(-c3coc(C)n3)c2c1,i
COc1ccc2c3c([nH]c2c1)[C@@H](CO)N(C(=O)NC(C)C)CC31CCN(C(=O)C2CCCCC2)CC1,380.6
CN1CCCC2(CCN(C(=O)CCn3ccc(=O)[nH]c3=O)C2)C1=O (stereo not given),-12.5
CC(C)CN1C[C@@H]2CCN(C(=O)NC3CCCC3)CC[C@H]2S1(=O)=O,-55.3
CC1=C(C(=O)NCc2ccc(OC(C)C)cc2)C2(CCN(S(C)(=O)=O)CC2)OC1=O,36.9
CCN1CCC2(CC1)OC(=O)C(C)=C2C(=O)NCc1ccccc1OC,61.2

mol,Tg IFNy HTS
COCCN1CC(=O)N(c2cccc(C)c2C)C(c2ccc(F)cc2)C1=O (stereo not given),4.5
O=C(O)CSc1cc(-c2ccccc2)nc(SCC(=O)O)n1,17.8
O=C1Nc2ccccc2NC12CCN(c1ncnc3c1CCNC3)CC2,1.8
O=S(=O)(NCC(c1cccnc1)c1c[nH]c2ccccc12)c1ccc2c(c1)CCCC2 (stereo not given),19.3
O=C(NCc1nnc2c(Cl)cc(C(F)(F)F)cn12)c1ccccc1,-43.2
CSC(C)(C)CC(C)NC1CCN(Cc2cccnc2)CC1 (stereo not given),-13.7
CC1CCN(c2ncnc3c2cnn3CC(=O)NC2CCN(Cc3ccccc3)CC2)CC1,151.1
CC(C)c1nc(CN(C)C(=O)c2cnn(Cc3ccccc3)c2)cs1,-21.9
c1coc(CN2C[C@@H](OCCCn3cccn3)[C@@H]3OCCC[C@@H]32)c1,-30.4
C/C(=C\c1ccccc1)CN1[C@@H]2CC[C@H]1CN(C)C(=O)C2,-4.0
CC(=O)c1sccc1NC(=O)CCC(=O)O,101.5
Cc1ccc2nc(C(=O)NCCSc3nccn3C)cn2c1,61.0
COc1ccc(CCNC(=O)c2cn3ccc(C)cc3n2)cc1OC,-7.6
CCS(=O)(=O)N1CCC2(CC1)CN[C@@H](CO)c1c2c2ccc(OC)cc2n1C,-50.1
O=C(Nc1cnc(N2CCOCC2)nc1)c1cc2ccccc2[nH]1,-10.1
C#Cc1cccc(Nc2ncnc3cc(OCCOC)c(OCCO)cc23)c1,-50.0
C[C@H](CO)N1C[C@H](C)[C@H](CN(C)C(=O)Nc2cccc(F)c2)Oc2cc(C#CC3(O)CCCC3)ccc2S1(=O)=O,-6.7
COc1ccc(-c2nc(N3CCN(Cc4ccccc4)CC3)c3ccccc3n2)cc1,16.1
Cc1cc(C(F)F)nn1CC(=O)NCc1ccc(-c2ncncc2C(=O)N(C)C)cc1,32.5
Cc1noc(C)c1S(=O)(=O)Nc1ccc2c(c1)C(=O)N([C@H](C)CO)C[C@@H](C)[C@H](CN(C)C(=O)Nc1cccc3ccccc13)OCCCC[C@@H](C)O2,62.9
O=C(NCc1nnc2n1CCCCC2)C1CC2(CCNCC2)CN1 (stereo not given),6.8
Cn1cncc1C(=O)N1CC2(CCNCC2)CC1C(=O)O (stereo not given),0.9
CCN(c1cc(-c2ccc(CN3CCOCC3)cc2)cc(C(=O)NCc2c(C)cc(C)[nH]c2=O)c1C)C1CCOCC1,-26.7
CCOC(=O)c1csc(-c2cccnc2)n1,-36.3
O=C(c1cnco1)N1CC[C@@H](c2ccc3ccccc3c2)[C@H](O)C1,-38.7

Five compounds already listed, sorted by count of non-hydrogen atoms, highest first:
mol,Tg IFNy HTS
O=S(=O)(NCC(c1cccnc1)c1c[nH]c2ccccc12)c1ccc2c(c1)CCCC2 (stereo not given),19.3
CCS(=O)(=O)N1CCC2(CC1)CN[C@@H](CO)c1c2c2ccc(OC)cc2n1C,-50.1
COCCN1CC(=O)N(c2cccc(C)c2C)C(c2ccc(F)cc2)C1=O (stereo not given),4.5
CC(C)c1nc(CN(C)C(=O)c2cnn(Cc3ccccc3)c2)cs1,-21.9
O=C(O)CSc1cc(-c2ccccc2)nc(SCC(=O)O)n1,17.8

Additional compounds follow:
mol,Tg IFNy HTS
CC(=O)c1[nH]c(C)c(C(=O)N2CCCC(CO)(CCc3ccccc3)C2)c1C (stereo not given),6.1
CC(NCC(=O)NCc1ccccc1F)c1ccc(S(C)(=O)=O)cc1 (stereo not given),0.4
Cc1cnc(CN(C)C(=O)C(C)(C)NC(=O)c2cccs2)[nH]1,-13.9
CC(=O)OCCSc1ccc(-c2ccc(SCCOC(C)=O)cc2)cc1,-36.9
O=C1CCCN1[C@H]1CN(C(=O)Cc2cccc(F)c2)[C@H]2CCCO[C@@H]12,3.1
CNC(=O)CN1CCCC12CCN(Cc1cc(C)nn1C)CC2,198.1
N#C[C@H]1[C@@H](c2ccccc2-c2cccc(F)c2)[C@H](CO)N1S(=O)(=O)c1cccc(F)c1,-48.4
O=C(NCC1(c2cccc(F)c2)CCOCC1)c1cnnn1-c1ccccc1,-6.5
O=C1NCCN=C(c2ccccc2)c2ccccc21,17.7
Cc1c(Br)c(C(F)(F)F)nn1CC(=O)Nc1ccccc1C(F)(F)F,-55.3
Cn1c(=O)c(-c2nc(-c3cccc(Br)c3)no2)c(O)c2ccccc21,205.2
CCc1nc(C)sc1CN1CCC2(CCCO2)CCC1=O (stereo not given),0.4
C[C@H]1CN([C@@H](C)CO)C(=O)c2cc(N(C)C)ccc2O[C@H]1CN(C)Cc1ccc(Oc2ccccc2)cc1,51.2
c1cncc(Oc2ccc(-n3ccnc3-c3ccncc3)cc2)c1,-21.7
CCc1ccccc1NC(=O)c1nnn(Cc2nc(-c3ccc(OC)cc3OC)oc2C)c1C,-37.2
Cc1ccc(-c2cnc3n2CCN(C)C32CCN(Cc3ccc(C)o3)CC2)cc1,-2.7
CC(C)N1CC2CCC(C1)C2C(=O)NCCc1cccs1 (stereo not given),114.1
CC(=O)Oc1ccc2c(c1)CCC1C2=CCC2(C)C(OC(C)=O)CCC12 (stereo not given),-92.4*
CCc1ccc(Nc2nc(C(=O)NCCc3cccs3)nc3ccccc23)cc1,-39.3
Cc1nc2ccccc2c(=O)n1CCC(=O)NC(c1ccc(F)cc1)C(C)C (stereo not given),19.1
Fc1ccc(N2CCC3(CC2)CC(c2cccnc2)CO3)cc1 (stereo not given),-81.7*
O=c1[nH]ncc(N2CCCC2)c1-c1cccc2ccnn12,0.3
Cc1cccc(CC(=O)NCCc2csc(-c3ccc(C(F)(F)F)cc3)n2)c1,70.0
CC(C)(O)C#Cc1ccc(CN2CCn3nc(C(=O)O)cc3C2)s1,27.2
CC=Cc1ccc2n(c1=O)C[C@H]1[C@H](CO)[C@@H](C(=O)NCC)N(Cc3cccc(F)c3)[C@@H]21 (mixture of isomers),-4.8

mol,Tg IFNy HTS
N#C[C@@H]1[C@H](c2ccccc2C2=CCCC2)[C@H](CO)N1C(=O)C1CCOCC1,-52.1
Cc1ccc(-c2coc(-c3ccc(NS(=O)(=O)c4ccc(Br)cc4)cc3)n2)cc1C,51.0
O=C(O)c1cc(=O)[nH]c(=O)[nH]1,0.6
CCn1ccnc1CNc1ccnc(SC)n1,0.5
COc1ccc(S(=O)(=O)N(C)C[C@H]2OCCCC[C@H](C)Oc3ccc(NC(=O)Cc4ccccc4)cc3C(=O)N([C@@H](C)CO)C[C@@H]2C)cc1,-107.9*
Cc1ccc(-c2nc(C)c(CCNC(=O)C(=O)Nc3ccc(F)cc3F)s2)cc1,21.5
CC(C)CCNC(=O)Cn1c(=O)c(S(=O)(=O)c2ccccc2)cc2ccccc21,1.7
CC(C)CCN(Cc1ccco1)S(=O)(=O)c1ccc2[nH]c(=O)ccc2c1,-52.8
Cc1ccc(C(=O)N2CCCC3(CC(n4ccnc4)CO3)C2)o1 (stereo not given),52.4
COc1ccccc1-c1ccc([C@H]2[C@H](CO)N[C@@H]2C#N)cc1,-39.6
CCOc1ccc(OCC)c(NC(=O)C2=C(C)C(=O)OC23CCN(C(C)C)CC3)c1,45.3
CCOc1ccc2[nH]c(=O)c(CN3CCC[C@H]3COC)cc2c1,-67.9
Cc1cccc(-c2nc(Cn3nnc(C(=O)NCc4ccc(C(F)(F)F)cc4)c3C)c(C)o2)c1,7.7
COC[C@H]1CCC2C(CCN2C(=O)c2ccc3[nH]ccc3c2)O1 (stereo not given in full),-44.9
C[C@H](CO)N1C[C@H](C)[C@@H](CN(C)C(=O)c2ccc(N3CCN(C)CC3)cc2)OCc2cn(nn2)CCCC1=O,-66.2
O=C(C1CCCC1)N1CC[C@](O)(c2ccccc2)[C@H](N2CCCC2)C1,?
CO[C@H]1CN(C)C(=O)c2cc(NC(=O)NC(C)C)ccc2OC[C@@H](C)N(Cc2ccccc2)C[C@@H]1C,63.6
Cc1ccc(CCNC(=O)c2cc3cc(S(=O)(=O)N(C)C)ccc3n2Cc2ccncc2)cc1,37.9
O=C(Cn1c(=O)cc(C(=O)N2CCCC2)c2ccccc21)Nc1ccc2c(c1)OCO2,-32.1
CCOc1ccc(NC(=O)N2CCC3(CC2)NC(=O)c2ccccc2N3C)cc1,200.3
COc1ccc(S(=O)(=O)N(C)C[C@@H]2Oc3ccc(N(C)C)cc3CC(=O)N([C@H](C)CO)C[C@H]2C)cc1,-14.0
CCC(CC)C(=O)N1CCC2(CC1)Nc1ccccc1-n1cccc12,25.6
CC(C)(C)OC(=O)N1CCc2[nH]nc(Nc3ccccc3)c2C1,-4.8
C=C(C)COc1ccccc1C(=O)N1CCC[C@H]1COC,-6.1
CCS(=O)(=O)N1CCOC2CC(COc3ccccn3)CC21 (stereo not given),0.8

mol,Tg IFNy HTS
CSc1ccccc1N1C(=O)CN(Cc2cccn2-c2ccccn2)CC1C (stereo not given),-1.3
CCCc1cnc(N2CCN(CC(=O)Nc3ccc4c(c3)OCCO4)CC2)nc1,-39.6
O=C(Oc1cccc(NC(=O)c2ccco2)c1)c1cccc(S(=O)(=O)N2CCCC2)c1,26.8
CCS(=O)(=O)N1CC[C@@H](O)[C@@H]1Cc1cnn(C)c1,i
CCS(=O)(=O)NCC[C@H]1CC[C@H](NC(=O)Nc2cc(Cl)cc(Cl)c2)[C@H](CO)O1,-33.1
COC(=O)C1CC2CCC1(C)C=C2n1c(C)nc(=O)c2cccnc21 (stereo not given),24.5
CC(C)Oc1cncc(C(=O)N2CCOCC2)c1,27.2
CN(Cc1ncc[nH]1)C1CCN(C(=O)c2ccccc2)CC1,7.9
Cc1cnccc1-n1nc(-c2ccccc2)nc1C1CCNC1 (stereo not given),-3.2
C=CCO[C@H]1CN(C(=O)c2cc(C)nn2CC)[C@H]2CCCO[C@@H]12,16.4
CC(=O)N1CCCC[C@@H]2[C@H]1[C@@H](c1ccccc1)CCN2C(=O)Cn1cc(C)nn1,0.5
O=C(c1ccc2[nH]c3c(c2c1)CCCC3)N1Cc2cnn(CCO)c2C1,22.2
C=CCN=C1SCC(=O)N1S(=O)(=O)c1ccc(C)cc1,-24.8
Cc1ccc(C2(O)CCN(C(=O)CN3CCOC3=O)CC2)nc1,-2.1
C[C@H](CO)N1C[C@H](C)[C@@H](CN(C)Cc2ccccc2C(=O)O)Oc2cc(-c3ccc(F)cc3)ccc2S1(=O)=O,46.6
Cc1cnc(NC(C)CCn2cccn2)nc1N(C)C (stereo not given),-0.7
CCc1ccc(S(=O)(=O)N2CCC3(CC2)NCCN=C3NCc2cccc(OC)c2)cc1,-0.3
CCc1cc(-c2ccc(C(=O)N(C)C)cc2)nc(N2CCCC2)n1,-12.1
Cc1n[nH]c(C)c1CN1CCc2[nH]cnc2C1c1cccc2cccnc12 (stereo not given),3.6

Looked up above.
Result for CSc1ccccc1N1C(=O)CN(Cc2cccn2-c2ccccn2)CC1C (stereo not given) under Tg IFNy HTS: -1.3
Result for CN(Cc1ncc[nH]1)C1CCN(C(=O)c2ccccc2)CC1 under Tg IFNy HTS: 7.9

These rows are one share of the data. The share of hits here may be higher or lower than overall.
